# Screening results deposited in PubChem BioAssay by ICCB-Longwood Screening Facility, Harvard Medical School.
# HCMV UL50-53 inh = disrupts HCMV UL50-UL53 complex binding | HTRF UL50-UL53 interaction, normalized percent inhibition | inhibition, % (concentration not given with the values) | 0.15% of 190,000 active | AID 1918969;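 active = both replicates at 50% or more, plus weaker picks with an unusually low signal ratio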;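 also: stock transfer was 100 nL into about 20 µL; 0% = negative control wells and 100% = wells with untagged competitor protein; inactives centre near -12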
# Sa growth inh = inhibitors of Staphylococcus aureus growth at 42 °C; 0.53% of 170,000 active; relative growth, % (no concentration beside the values); S. aureus RN4220 growth, OD600, 20 h; stronger effect = lower value; AID 720641;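 active = growth at 42 °C up to 50% and 20 or more points under that at 30 °C, or under 10% at both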;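 also: 300 nL library stock went into each well; scaled to the means of positive and negative controls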
# GIV-Gai inh = blocks GIV peptide binding to rat Galpha-i3; AID 1224905; Galpha-i3/FITC-GIV peptide fluorescence polarization, 90 min; stronger effect = lower value; scaled: aluminum fluoride 0%, vehicle 100%; percent of control (FP), % (concentration not given with the values); P08753; 0.42% of 210,000 active;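 active = replicate mean at 85% of control or lower, very high polarization wells dropped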;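 also: wells of about 15 µL received 100 nL stock; the first replicate is given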
# Target sequence (P08753 whole entry, looked up): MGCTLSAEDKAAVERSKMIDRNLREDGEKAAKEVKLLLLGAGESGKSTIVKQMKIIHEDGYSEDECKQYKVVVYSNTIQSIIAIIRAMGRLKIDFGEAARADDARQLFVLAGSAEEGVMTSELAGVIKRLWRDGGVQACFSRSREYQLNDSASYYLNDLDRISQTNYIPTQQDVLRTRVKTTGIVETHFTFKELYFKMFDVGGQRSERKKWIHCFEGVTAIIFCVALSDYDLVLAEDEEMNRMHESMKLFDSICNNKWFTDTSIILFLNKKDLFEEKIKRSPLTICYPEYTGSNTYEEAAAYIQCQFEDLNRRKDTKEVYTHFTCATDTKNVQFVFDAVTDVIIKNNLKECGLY
# Sa growth inh second temp = recorded beside Sa growth inh, whose call it bears; relative growth, %; measured here: growth at 30 °C;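 optical density after 20 h as mean of two plates; 100% = untreated growth and lower means inhibition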
# An asterisk follows results filed as active; x = not tested or not shown; & = joins results of further samples.
# Preview (7 entries):
item	compound	HCMV UL50-53 inh	Sa growth inh
1	Cc1ccc(-c2n[nH]c3c2C(c2ccc(C(C)C)cc2)NC3=O)cc1 (stereo not drawn)	-18.0	96.8
2	CC(NC(=O)C(Cc1ccccc1)n1cccc1)c1ccccc1 (stereo not drawn)	x	97.6
3	CCOc1ccc(N2CC(c3nc4ccccc4n3CCCOc3ccccc3)CC2=O)cc1 (stereo not drawn)	-6.3	139.3
4	COc1ccc(Nc2nc(NCCN3CCOCC3)nc3c2cnn3C)cc1Cl	x	97.1
5	Cc1nc(Cl)c2sc(=S)n(-c3ccccc3)c2n1	-11.1	88.7
6	COc1ccc(NC(=O)COc2ccc(Cl)cc2)cc1CN1CCn2c(nc3ccccc32)C1	-11.9	x
7	CCOC(=O)Nc1ccc2c(c1)N(C(=O)CCN(CC)CC)c1ccccc1S2=O (stereo not drawn)	-8.5	93.6

item	GIV-Gai inh	Sa growth inh second temp
1	102.9	95.8
2	103.6	76.9
3	102.4	82.2
4	104.2	79.9
5	x	84.5
6	95.1	x
7	109.8	92.4

# The whole of this part, from the start:
item	compound	HCMV UL50-53 inh	Sa growth inh
1	Cc1ccc(-c2n[nH]c3c2C(c2ccc(C(C)C)cc2)NC3=O)cc1 (stereo not drawn)	-18.0	96.8
2	CC(NC(=O)C(Cc1ccccc1)n1cccc1)c1ccccc1 (stereo not drawn)	x	97.6
3	CCOc1ccc(N2CC(c3nc4ccccc4n3CCCOc3ccccc3)CC2=O)cc1 (stereo not drawn)	-6.3	139.3
4	COc1ccc(Nc2nc(NCCN3CCOCC3)nc3c2cnn3C)cc1Cl	x	97.1
5	Cc1nc(Cl)c2sc(=S)n(-c3ccccc3)c2n1	-11.1	88.7
6	COc1ccc(NC(=O)COc2ccc(Cl)cc2)cc1CN1CCn2c(nc3ccccc32)C1	-11.9	x
7	CCOC(=O)Nc1ccc2c(c1)N(C(=O)CCN(CC)CC)c1ccccc1S2=O (stereo not drawn)	-8.5	93.6
8	COc1cccc(-c2cc3nc(-c4ccccc4)cc(N4CCC(O)CC4)n3n2)c1	5.8	133.1
9	Cc1nc2c3ccccc3n3c(CCCC(=O)N4CCN(c5ccccc5)CC4)nnc3n2n1	-26.4	x
10	CCC(Sc1nnc2c3ccccc3n(CC)c2n1)C(=O)Nc1ccc(NC(C)=O)cc1 (stereo not drawn)	-39.8	88.1
11	CCC(C(=O)N1CCN(S(C)(=O)=O)CC1)c1ccccc1 (stereo not drawn)	3.6	113.5
12	CC(C)c1ccc(CN(C(=O)c2cc3ccccc3oc2=O)C2CCS(=O)(=O)C2)cc1 (stereo not drawn)	-25.5	114.1

item	GIV-Gai inh	Sa growth inh second temp
1	102.9	95.8
2	103.6	76.9
3	102.4	82.2
4	104.2	79.9
5	x	84.5
6	95.1	x
7	109.8	92.4
8	103.3	87.3
9	101.8	x
10	101.0	95.5
11	103.0	109.2
12	102.9	90.2

# Remaining list, next part.
item	compound	HCMV UL50-53 inh	Sa growth inh
13	COc1ccc2nc(N(Cc3cccnc3)C(=O)C3CCCCC3)sc2c1	x	92.0
14	COc1ccc2c(c1)c(C(=O)CNc1nc(C)cs1)c(C)n2C	-12.1	90.7
15	Cc1cc(C)cc(NC(=O)CCc2nnc3n(C)c(=O)c4sccc4n23)c1	6.7	98.1
16	CCC(C(=O)N1CCN(C(=O)c2ccco2)CC1)n1nc(C)c2sc3ccccc3c2c1=O (stereo not drawn)	-30.3	73.2
17	CCn1c(CCC(=O)Nc2ccnn2Cc2cccs2)nc2cc(S(=O)(=O)N(C)C)ccc21	11.4	79.1
18	CC(C)CCNC(=O)C1(C)Cn2c(cc3ccccc32)C(=O)N1CCC1=CCCCC1 (stereo not drawn)	-7.4	x
19	COc1cccc(-c2nc(SC(C(C)=O)C(=O)N(C)C)c3c(=O)n(C)c(=O)n(C)c3n2)c1 (stereo not drawn)	x	79.4
20	Cc1ccc(C(=O)c2c(N)c(-c3nc(-c4ccc5c(c4)OCO5)cs3)c3ccccn23)cc1C	-8.8	105.9
21	CCN(CC(=O)Nc1ccc2c(c1)OCCO2)CC(=O)Nc1sccc1C#N	-30.4	72.2
22	Cc1noc(C)c1CSc1ccc2ccccc2n1	x	87.5
23	N#CC(C#N)=Cc1cn(-c2ccccc2)nc1-c1ccccc1	-45.1	108.2
24	CN(C)S(=O)(=O)c1ccc(C(=O)NCCn2ccc3ccccc32)cc1	7.5&6.0	98.0

item	GIV-Gai inh	Sa growth inh second temp
13	102.9	64.3
14	98.0&98.0	56.1
15	97.7	90.0
16	101.0	80.1
17	x	81.7
18	107.1	x
19	97.8	88.9
20	99.3	84.9
21	x	92.9
22	96.4	65.9
23	98.1	110.2
24	103.8	81.8

# A few values from the results shown:
# GIV-Gai inh, no. 18 reads 107.1
# GIV-Gai inh, no. 22 reads 96.4

# Further structures follow.
item	compound	HCMV UL50-53 inh	Sa growth inh
25	CCn1c(=O)c2c(C(=O)N3CCOCC3)cc(=O)n(CC)c2n(C)c1=O	-27.5	x
26	CC(C)C1Oc2cc3oc(=O)ccc3cc2/C1=N\NC(N)=S (stereo not drawn)	-35.8	106.6
27	COCCNC(=O)c1ccc2c(=O)n(-c3ccc(F)cc3)c(SCC(=O)c3c[nH]c4ccccc34)nc2c1	-12.1	x
28	CCCn1c2ccccc2c2cnn(CC(=O)Nc3ccccc3)c(=O)c21	-13.4	100.5
29	COc1cccc(-c2cc(C(=O)N3CCOCC3)on2)c1	x	112.2
30	COc1ccc(C(=O)Nc2nnc(SCc3cc(=O)c4cccc(F)c4[nH]3)s2)cc1	x	94.2
31	Cc1cc(=O)[nH]c(C(C)C)n1	7.0	102.6
32	CN(C1CCCCC1)S(=O)(=O)c1ccc(CCN2C(=O)c3cccnc3C2=O)cc1	x	104.5
33	CCOc1ccc(C(=O)Nc2ccc(S(=O)(=O)N(Cc3ccccc3)c3ccccc3)cc2)cc1	-13.9	100.6
34	CCc1cccc(C)c1Nc1c(-c2ccc(F)cc2)nc2sccn12	-13.0	92.0
35	CC1=NN(c2ccc(S(N)(=O)=O)cc2)C(=O)/C1=C\c1ccc(-c2ccc(C)cc2[N+](=O)[O-])o1	-17.5	x
36	Cc1ccc2oc(=O)c3cnn(CC(=O)N4CCN(c5cccc(Cl)c5)CC4)c3c2c1	-7.3	101.6

item	GIV-Gai inh	Sa growth inh second temp
25	106.0	x
26	104.8	91.3
27	129.6	x
28	105.3	99.5
29	103.2	93.8
30	104.5	89.8
31	x	95.3
32	102.2	98.0
33	98.3	89.1
34	101.7	76.1
35	90.5	x
36	109.4	80.5

# New compounds follow
item	compound	HCMV UL50-53 inh	Sa growth inh
37	CC(=O)N1CCc2cc(NC(=S)Nc3ccccc3Cl)ccc21	20.8	96.1
38	CCC(C)NC(=O)c1ccc(CNS(=O)(=O)c2ccc3c(c2)C(C)(C)C(=O)N3C)cc1 (stereo not drawn)	x	89.4
39	O=C(NCCSCc1ccc2nonc2c1)c1ccc(Cl)cc1Cl	-62.9	92.2
40	O=C(/C=C/c1cccs1)Oc1ccccc1Cl	-3.0	102.9
41	CCOc1ccc2nc(N3CCCC(C(=O)NC)C3)sc2c1 (stereo not drawn)	x	110.1
42	Cc1ccc(Nc2nc(N)nc(N)c2S(=O)(=O)c2ccccc2)cc1	-12.1	92.8
43	CC(C)Nc1nnc(SCc2cc(=O)n3ccsc3n2)s1	-48.9	92.4
44	Cc1cc(C(=O)N2CCC(C(=O)O)CC2)c(C(F)(F)F)o1	-24.7	79.5
45	Cc1ccc2c(c1)cc1c(=O)n(CC(=O)NC3CCCCC3)nc(C)n12	-10.7	98.5
46	COc1cc(/C=C2/C(=O)N(c3ccc(Cl)c(Cl)c3)N=C2C)ccc1OCC(=O)O	0.5	x
47	CN1C(=O)c2cc(NC(=O)c3cccc(N(C)C)c3)ccc2N2CCN=C12	-6.0	x
48	Cc1cc(N2CCOCC2)n2nc(C)c(-c3ccc(F)cc3)c2n1	-24.1	x

item	GIV-Gai inh	Sa growth inh second temp
37	103.0	87.2
38	100.6	71.5
39	105.9	83.6
40	101.5	105.2
41	103.2	86.4
42	106.5	84.3
43	x	73.0
44	101.4	88.6
45	102.8	82.4
46	126.7	x
47	105.7	x
48	110.3	x

# The list goes on.
item	compound	HCMV UL50-53 inh	Sa growth inh
49	N#Cc1ccc(C(=O)N(CC(=O)Nc2ccccc2C(F)(F)F)Cc2ccco2)cc1	-33.5	99.2
50	Cc1ccc(-n2nc3c(N4CCC(C(=O)NC(C)C)CC4)nnc(C)c3c2C)cc1	x	101.2
51	O=C(Oc1ccc2ccccc2c1)c1ccccc1Cl	-12.6	102.0
52	O=C(CSC(=S)N1CCCC1)Nc1ccccc1OC(F)F	-22.5	76.5
53	Nc1ccc(Cn2cccn2)cc1	6.4	61.7
54	CC(C)c1ccc(NC(=O)CSc2nc3ccccc3nc2Cc2ccccc2)cc1	x	77.1
55	Cc1ccccc1Cn1c(SCc2ccc(C(=O)NCCc3ccccc3)cc2)nc2ccncc21	-21.2	116.7
56	Cc1cc(C)cc(NC(c2cccc(Cl)c2)c2nnc(-c3ccccc3)o2)c1 (stereo not drawn)	-10.5	91.5
57	CC(CCc1ccccc1)NC(=O)CSc1ncnc2ccccc12 (stereo not drawn)	-9.8	98.6
58	O=C(O)CSc1ccc(S(=O)(=O)N2CCCC2)cn1	0.8	93.1
59	COc1ccccc1CNC(=O)c1cnc2ccc(S(=O)(=O)N3CCOCC3)cc2c1Cl	-1.4	97.4
60	Cn1nnnc1SCCCNCc1cccc(OCc2ccccc2)c1	-39.2	92.2

item	GIV-Gai inh	Sa growth inh second temp
49	x	85.5
50	108.5	100.3
51	x	79.1
52	x	99.3
53	104.2	95.0
54	103.1	86.4
55	98.0	94.6
56	101.7	90.4
57	x	87.6
58	x	99.4
59	109.1	99.5
60	102.7	73.9

# The list continues:
item	compound	HCMV UL50-53 inh	Sa growth inh
61	CCN1CCN(Cc2c(O)ccc3c(=O)c(Oc4ccccc4C(C)C)c(C(F)(F)F)oc23)CC1	-17.0	102.1
62	Cc1cc(=O)oc(C)c1C(=O)O	-20.6	99.0
63	Cc1ccc(C)c(N2CCN(CCCNC(=O)c3cnn(-c4cccc(Cl)c4)c3C3CCN(C(=O)OC(C)(C)C)CC3)CC2)c1	x	118.9
64	COc1cc2c(cc1OC)C(COc1ccc(F)cc1)N(C(=O)c1ccccc1F)CC2 (stereo not drawn)	x	94.1
65	CCc1oc2ccccc2c1C(=O)c1ccc(OC(C)=O)cc1	-8.1	54.4
66	O=C(CC1CCCCC1)Nc1nc2ccccc2s1	1.1	94.9
67	COc1ccc(-c2csc(-c3cccs3)n2)c(OC)c1	14.4	86.5
68	Cc1cnc(C(=O)Nc2cc(S(C)(=O)=O)ccc2Cl)cn1	5.0	107.9
69	CCCC(=O)Nc1ccccc1-c1nnc(SC)[nH]c1=O	-29.4	92.2
70	COc1ccccc1NC(=O)Nc1nnc(N2CC(C)CC(C)C2)s1 (stereo not drawn)	x	106.1
71	O=C(Cn1c(=O)n(Cc2ccco2)c(=O)c2oc3ccccc3c21)Nc1ccc(F)cc1F	x	116.5
72	Fc1ccc2nc(-c3ccc(Cl)c(Cl)c3)cnc2c1	x	89.8

item	GIV-Gai inh	Sa growth inh second temp
61	98.1	89.2
62	104.2	90.1
63	98.1	47.9
64	100.0	76.7
65	x	36.6
66	x	88.5
67	x	94.4
68	x	92.0
69	97.2	81.3
70	105.7	90.2
71	102.8	91.5
72	96.9	80.5

# Following part:
item	compound	HCMV UL50-53 inh	Sa growth inh
73	COc1ccccc1CC(=O)N1CCN(c2ccc(C(F)(F)F)cn2)CC1	-7.2	103.1
74	NC(=O)c1ccccc1N=Cc1ccc(Br)s1	-11.7	93.6
75	O=C(NCCN1Cc2ccccc2C1=O)c1ccc(Cl)cc1	4.3	106.5
76	COc1cc(OC)cc([C@@H]2[C@@H](C(C)(C)C)C(C#N)(C#N)[C@H]3c4ccccc4C=CN23)c1	-9.7	70.8
77	CCOC(=O)C1CCN(CC(=O)CNc2ccc(Cl)c(Cl)c2)CC1	-10.1	104.4
78	Cc1sc2c(c1C)CSCC2=O	-49.9	89.7
79	N=c1c2ncn(C3OC(CO)C(O)C3O)c2ncn1O (stereo not drawn)	-4.1	x
80	O=C(CN1C(=O)COc2ccccc21)NC1CC1	9.6	88.4
81	Cc1ccc(C2CC(c3cc(Br)ccc3O)=NN2)cc1 (stereo not drawn)	0.5	13.7
82	CC(=O)Nc1cccc(NC(=O)CN2C(=O)CCSc3ccccc32)c1	-22.7	103.5
83	COC(=O)c1c(N)n(-c2ccc(C)c(C)c2)c2nc3ccccc3nc12	-36.9	87.3
84	COc1cc(/C=C/C(=O)N2CCC(C)CC2)ccc1OCc1ccccc1	x	78.4

item	GIV-Gai inh	Sa growth inh second temp
73	x	101.3
74	x	72.2
75	101.1	96.8
76	x	65.6
77	x	96.8
78	116.5	72.3
79	97.7	x
80	104.0	101.0
81	116.1	4.6
82	101.7	84.8
83	96.1	84.1
84	99.9	45.7

# Values by screen from the list:
# Entries 78 to 82 in Sa growth inh second temp, in turn: 72.3, x, 101.0, 4.6, 84.8
# Entries 78 to 82 in HCMV UL50-53 inh, in turn: -49.9, -4.1, 9.6, 0.5, -22.7
# Entries 78 to 82 in Sa growth inh, in turn: 89.7, x, 88.4, 13.7, 103.5
